# KCNQ2 block: KCNQ2 potassium channel inhibitors, primary screen, cell-based, CHO-K1, FluxOR thallium flux, B-score (AID 2156). Potassium voltage-gated channel subfamily KQT member 2 (Rattus norvegicus), O88943. 20 min; hits give low values; only compounds with negative scores are shown here; some inactives read as strong as hits. B-score at 10 µM. 310,000 tested, 1.1% active;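 active means fluorescence ratio B-score at most minus 3 library SDs, with starting brightness B-score within 2 library SDs, cut at about -5.5 in these data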
# Target sequence (O88943 whole entry, looked up): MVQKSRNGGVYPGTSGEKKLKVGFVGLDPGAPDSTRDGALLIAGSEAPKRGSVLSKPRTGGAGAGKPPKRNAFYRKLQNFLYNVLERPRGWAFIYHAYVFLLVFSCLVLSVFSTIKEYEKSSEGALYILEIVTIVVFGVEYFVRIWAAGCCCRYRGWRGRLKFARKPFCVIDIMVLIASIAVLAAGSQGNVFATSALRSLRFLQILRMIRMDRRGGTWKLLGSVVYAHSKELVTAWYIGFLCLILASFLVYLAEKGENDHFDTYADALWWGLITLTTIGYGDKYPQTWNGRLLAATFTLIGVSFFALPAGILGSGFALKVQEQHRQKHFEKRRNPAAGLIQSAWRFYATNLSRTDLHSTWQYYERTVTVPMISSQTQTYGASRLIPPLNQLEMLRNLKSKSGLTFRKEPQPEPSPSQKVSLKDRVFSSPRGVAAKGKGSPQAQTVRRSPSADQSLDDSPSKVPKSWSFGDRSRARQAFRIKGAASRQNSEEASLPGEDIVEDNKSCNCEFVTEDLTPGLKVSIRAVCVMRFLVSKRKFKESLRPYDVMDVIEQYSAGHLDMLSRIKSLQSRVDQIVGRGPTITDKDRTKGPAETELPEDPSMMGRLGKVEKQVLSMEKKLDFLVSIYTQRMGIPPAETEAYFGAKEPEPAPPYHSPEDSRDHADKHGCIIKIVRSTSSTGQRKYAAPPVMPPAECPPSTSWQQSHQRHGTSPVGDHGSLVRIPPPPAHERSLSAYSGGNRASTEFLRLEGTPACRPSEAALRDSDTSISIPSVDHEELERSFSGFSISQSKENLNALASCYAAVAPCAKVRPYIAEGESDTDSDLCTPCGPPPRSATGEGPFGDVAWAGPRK
# KCNQ2 block baseline: recorded beside KCNQ2 block, whose call it bears; B-score; measured here: initial fluorescence intensity artifact check;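 brightness before thallium and not channel activity; 0 = typical well and far values either way flag optical interference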
# The depositor's hits bear a star; i = inactive. Only part of the results is shown; the hit share may differ from the screen's.
SMILES,KCNQ2 block,KCNQ2 block baseline
O=C(/C=C\c1ccco1)Nc1cc([N+](=O)[O-])ccc1F,i,0.07
COc1ccc(C(=O)NCCCSC)cc1OC1CCN(C(C)C)CC1,i,1.4
Cc1cc(C)nc(Oc2ccc(Br)cc2)n1,i,1.3
O=C(Cc1ccccc1)Nc1nnc(SCC(=O)NC2CCCC2)s1,i,-0.28
Cc1ccc(-c2cc(-c3nnc(SCC(=O)NCC(C)C)n3N)c3ccccc3n2)cc1,i,-0.87
Cc1cc(N2CCN(C)CC2)nc2ccc(NC(=S)N3CCC4(CC3)OCCO4)cc12,i,-0.85
O=C1CC(Cc2ccccc2)C(=O)N1c1ccccn1 (stereo not drawn),i,-0.59
Cc1cc(NC(=O)CCC(=O)N(Cc2ccco2)C(C(=O)NC2CCCCC2)c2ccccc2)no1 (stereo not drawn),i,3.1
COC(=O)C(C(=O)OC)C(C(=O)OC)C(C(=O)OC)C(=O)OC,i,0.34
Cc1cccc(NC(=O)c2c(O)c3ccccc3[nH]c2=O)c1,i,-1
O=C(Nc1ccccc1C(=O)N1CCOCC1)C1COc2ccccc2O1 (stereo not drawn),i,0.91
Cc1ccc(Nc2nc(N)nc(-c3oc4ccccc4c3C)n2)cc1,i,2.6
COc1ccc([C@H]2/C=C\CN(C(=O)c3ccccc3)[C@@H](C)C(=O)N2Cc2ccc(F)cc2)cc1,i,-1.9
O=C(Nc1ccccc1)C1=C[C@@H](c2ccc(C(F)(F)F)cc2)C[C@@H](OCc2ccc(CO)cc2)O1,i,-0.03
COc1ccc(/C=C/C(=O)NC(=S)Nc2ccc(S(=O)(=O)Nc3ccc(OC)nn3)cc2)cc1,i,0.28
O=c1c(Cc2ccc(Cl)cc2Cl)c(O)ccn1Cc1ccc(Cl)cc1,i,-0.23
Cc1cc(C)c(C(=O)COC(=O)c2cc([N+](=O)[O-])ccc2N2CCOCC2)cc1C,i,-0.17
O=C(O)c1cccc(N2C(=O)C3C4C=CC(C4=C(c4ccccc4)c4ccccc4)C3C2=O)c1 (stereo not drawn),i,-0.84
CC1(C)NC(=O)N(CC(O)COc2ccccc2C(=O)N2CCCCC2)C1=O (stereo not drawn),i,2.1
Cc1ccc(C(C)C)c(OCC(=O)N/N=C/c2cccn2C)c1,i,-0.39
CCOC(=O)c1ccc(NC(=O)Nc2cc(C)on2)cc1,i,-0.83
Cc1ccc2cc(CCl)c(Cl)nc2c1,i,-0.83
NC(=S)NN=C1c2ccccc2-c2ccccc21,i,-0.75
Cc1ccc2c(c1)N(C(=O)CCC(=O)NCCCN1CCOCC1)CCO2,i,-0.23
CCOc1ccc(S(=O)(=O)N2CCN(c3ccccc3)CC2)c2cccnc12,i,0.84
O=C(CSCc1c(Cl)cccc1Cl)Nc1ccc2c(c1)OCO2,i,0.55
O=C(C1CCCN(c2ncnc3c2nc2n3CCCCC2)C1)N1CCN(c2ccc(Cl)cc2)CC1 (stereo not drawn),i,-0.63
O=C(c1cc(-c2cccs2)on1)N1CCCc2ccccc21,i,0.78
COc1ccc2[nH]c(=O)c(CNc3ccc(C)c(C)c3)cc2c1,i,-1.4
O=C(CCN1CCCCC1)NCNC(=O)CCN1CCCCC1,i,-1
CCC(=O)c1ccc(OCC(O)Cn2nc(C)c(Br)c2C)cc1 (stereo not drawn),i,0.61
O=C(NCc1cccs1)N[C@@H](Cc1ccccc1)C(=O)O,i,0.08
O=C(NCc1ccco1)C1CCCN(c2nnc(-n3cccc3)s2)C1 (stereo not drawn),i,0.24
Cc1cc(C)c(NC(=O)COC(=O)Cc2ccsc2)c(C)c1,i,-1.1
O=C(CSCc1ccco1)c1ccc(Cl)s1,i,-0.75
CN(C)CCCN(C(=O)c1ccc([N+](=O)[O-])s1)c1nc2cc3c(cc2s1)OCCO3,i,-1.7
Cc1ccc(/C=N/NC(=O)c2nc3nc(C)cc(C)n3n2)cc1,i,0.39
COc1cccc(CN2CCN(c3cccc(C(F)(F)F)c3)CC2)c1OC,i,-0.62
Cc1cc(C)c2c(=O)n(CC(=O)N3CCC(Cc4ccccc4)CC3)sc2n1,i,1.2
O=C(O)CCn1c(=S)oc2ccccc21,i,-1.5
CC(=O)NC(=S)Nc1ccc(-c2nc3ccc(C)cc3s2)cc1,i,-0.12
CCOc1ccc(CCNC(=O)c2cccc(NC3=NC4CS(=O)(=O)CC4S3)c2)cc1OCC (stereo not drawn),i,-0.71
COc1ccc(C)cc1NC(=O)C(Sc1nnc2ccccn12)c1ccccc1 (stereo not drawn),i,0.04
O=C(NC(NCc1ccccc1)C(Cl)(Cl)Cl)c1cccnc1 (stereo not drawn),i,-0.71
CC(c1nc2ccccc2o1)N1C(=O)c2ccccc2C1=O (stereo not drawn),i,3.2
COc1ccc(N(C)S(=O)(=O)c2cccc(C(=O)Nc3ccc4c(c3)OCCO4)c2)cc1,i,-2.1
O=C(CCSCc1ccc(Cl)cc1)NCCc1ccccc1,i,0.36
COc1cc(C(C(=O)NC2CCCC2)N(Cc2ccco2)C(=O)c2snc(C(N)=O)c2N)cc(OC)c1OC (stereo not drawn),i,-0.76
O=[N+]([O-])c1ccc(Cl)c(/C=N/N2CCN(Cc3ccccc3Cl)CC2)c1,-7.2*,0.25*
CCOc1ccc(NC(=O)C2C(c3ccccc3)C2(Cl)Cl)cc1 (stereo not drawn),i,0.51
CCOC(=O)CC(=O)CSc1nc2nc(C)cc(C)n2n1,i,-0.24
O=C(Nc1cc(C(F)(F)F)ccc1N1CCOCC1)C1Cc2ccccc2CN1C(=O)c1ccco1 (stereo not drawn),-6.5*,0.55*
OCCC1CN(Cc2cnc(-c3ccccc3)s2)CCN1C1CCCC1 (stereo not drawn),i,0.35
Cc1ccc(NC(=O)CSCc2c(C)noc2C)cc1C,i,0.76
COc1ccc(N2CC(C(=O)Nc3nc4ccccc4s3)CC2=O)cc1 (stereo not drawn),i,0.89
CC1CCCC(NS(=O)(=O)c2cc(Br)cnc2N)C1C (stereo not drawn),i,-0.2
COc1ccc(C(=O)Nc2ccc(NC(=O)C3CC3)cn2)cc1,i,1.5
CC1CCCCC1NC(=O)COC(=O)c1ccc(S(=O)(=O)NCc2ccco2)cc1 (stereo not drawn),i,0.12
N#CC(C#N)=Cc1ccccc1OCc1ccccc1,i,0.06
O=C(c1ccc(Cl)s1)N1CCCC(N2CCN(c3ccc(F)cc3)CC2)C1 (stereo not drawn),i,0.1

# Next part
SMILES,KCNQ2 block,KCNQ2 block baseline
COc1cc(Cl)c(C)cc1NC(=O)c1ccc(NS(=O)(=O)c2ccc(F)c(F)c2)cc1,i,0.5
Cc1noc(C)c1COC(=O)COc1cccc2c1OC(C)(C)C2,i,-1
CCOC(=O)/C(C#N)=C1\CC2CCC1(C)C2(C)C (stereo not drawn),i,0.97
FC(F)(F)c1cccc(CN2CCC(c3cc(-c4cccs4)n[nH]3)CC2)c1,i,0.11
O=C(Cn1[nH]c(=O)c2ccccc2c1=O)OCC(=O)N(Cc1ccccc1)Cc1ccccc1,i,-0.11
CNc1ccc2nnc(C(F)(F)C(F)(F)C(F)(F)F)n2n1,i,0.01
CCOC(=O)c1ccc(Nc2nnc(C(C)(C)C)c(=O)[nH]2)cc1,i,-0.67
COc1ccc(C(C[N+](=O)[O-])c2c(C)cc3ccccn23)cc1 (stereo not drawn),i,0.12
C/C(=N\NC(=S)NCc1ccccc1)c1cccc(Br)c1,i,3.4
O=C(COc1ccc(Br)cc1)Nc1ccc(NC(=O)c2ccccc2)cc1,i,0.01
Cc1oc2ccc(OC(=O)c3cccs3)cc2c1C(=O)OC(C)C,i,2.6
CCOc1ccccc1/C=C(/NC(=O)c1ccccc1)C(=O)N(CC)CC,i,-0.92
Cn1cnc([N+](=O)[O-])c1S(=O)(=O)c1ccc(Cl)cc1,i,-1.1
COC(=O)Cc1ccc(N(Cc2ccccc2F)S(=O)(=O)c2ccc(Br)cc2)cc1,i,1.4
Cc1csc(N)n1,i,-1.8
COc1cc(C(=O)Nc2nc(C)c(Cc3ccc4c(c3)OCO4)s2)cc(OC)c1OC,i,-0.64
CC1CN(C(=O)COC(=O)c2ccc(O)cc2)CC(C)O1 (stereo not drawn),i,0.2
Cc1onc(-c2ccccc2)c1C(=O)Nc1sc2c(c1C#N)CCC2,i,-0.18
Cc1noc(C)c1COc1ccc(C(=O)NCc2ccccn2)cc1,i,-0.93
CCN(CC)CCN1C(=O)C(=O)/C(=C(/O)c2ccc(C)cc2)C1c1ccncc1 (stereo not drawn),i,0.01

# Grouped by structure, the entries above with a CF3 group.
SMILES,KCNQ2 block,KCNQ2 block baseline
O=C(Nc1ccccc1)C1=C[C@@H](c2ccc(C(F)(F)F)cc2)C[C@@H](OCc2ccc(CO)cc2)O1,i,-0.03
COc1cccc(CN2CCN(c3cccc(C(F)(F)F)c3)CC2)c1OC,i,-0.62
O=C(Nc1cc(C(F)(F)F)ccc1N1CCOCC1)C1Cc2ccccc2CN1C(=O)c1ccco1 (stereo not drawn),-6.5*,0.55*
FC(F)(F)c1cccc(CN2CCC(c3cc(-c4cccs4)n[nH]3)CC2)c1,i,0.11
CNc1ccc2nnc(C(F)(F)C(F)(F)C(F)(F)F)n2n1,i,0.01

# The list goes on:
SMILES,KCNQ2 block,KCNQ2 block baseline
CC1CC(C)CN(c2ncc3c(n2)CC(c2ccccc2)CC3=O)C1 (stereo not drawn),i,-1.6
CCc1ccc(-c2csc(NC(=O)C3CCCO3)c2C(=O)OC(C)C)cc1 (stereo not drawn),-8.3*,-0.03*
COc1ccc(-n2c(SCC#N)nc3c(sc(=S)n3-c3ccccc3)c2=O)c(OC)c1,i,-0.32
Cc1c(N=C2N=C(NC(=O)NC(C)(C)C)c3ccccc32)c(=O)n(-c2ccccc2)n1C,i,0.03
O=C(Nc1ccc(NC(=O)c2cccs2)cc1)c1ccc2c(c1)OCO2,i,0.25
Cc1ccc(C(=O)NC(=S)N2CCN(C)CC2)cc1,i,-1.6
COC(=O)c1ccc2ncccc2c1,i,3
CCCCCCCCCn1ccc(=N)cc1,i,0.09
O=C(O)CC(C(=O)OCCOc1ccccc1)N1CCOCC1 (stereo not drawn),i,-0.82
CCCn1c(C(C)Nc2nc(-c3ccc(Cl)c([N+](=O)[O-])c3)cs2)nc2ccccc21 (stereo not drawn),i,0.08
Nc1c(-c2nn[nH]n2)cnn1-c1cc(Cl)cc(Cl)c1,i,0.42
COc1ccc(C(CNC(=O)COc2ccc(Cl)c(C)c2)N2CCCCC2)cc1 (stereo not drawn),-5.9*,-1.2*
COc1ccc(CNC(=O)CN=C2NC(=O)C(c3ccccc3)(c3ccccc3)N2)cc1,-6.1*,-0.98*
CC(=O)OC(C)C(=O)NS(=O)(=O)c1ccc(C)cc1 (stereo not drawn),i,-0.03
COc1cccc(N2CCN(C(=O)NC3CCCCC3)CC2)c1,i,-0.13
O=C(O)Cn1c(=O)c(F)cn(C2CCCO2)c1=O (stereo not drawn),i,-0.21
O=C(NCc1ccccc1)C(=O)NCC1OCCN1S(=O)(=O)c1ccc(Br)cc1 (stereo not drawn),i,0.77
O=C(Oc1ccc(/C=N/n2cnnc2)cc1)c1cccc([N+](=O)[O-])c1,i,-0.51
CC(=O)NC(CC(=O)N1CCCC1)c1ccccc1 (stereo not drawn),i,-1
O=C(O)CC/C(=N\NC(=O)CNC(=O)/C=C/c1ccccc1)c1ccccc1,i,-0.83

# Arranged by SMILES length (descending): 5 of the compounds above
SMILES,KCNQ2 block,KCNQ2 block baseline
Cc1c(N=C2N=C(NC(=O)NC(C)(C)C)c3ccccc32)c(=O)n(-c2ccccc2)n1C,i,0.03
COc1ccc(-n2c(SCC#N)nc3c(sc(=S)n3-c3ccccc3)c2=O)c(OC)c1,i,-0.32
O=C(Oc1ccc(/C=N/n2cnnc2)cc1)c1cccc([N+](=O)[O-])c1,i,-0.51
O=C(O)Cn1c(=O)c(F)cn(C2CCCO2)c1=O (stereo not drawn),i,-0.21
COC(=O)c1ccc2ncccc2c1,i,3

# More results follow.
SMILES,KCNQ2 block,KCNQ2 block baseline
CCCCCOc1ccc(C(=O)NCC(=O)NCC(=O)OCC)cc1,i,-0.14
CC(C)Cn1c(=O)c2ccccc2c2ccccc2c1=O,i,0.58
CCOC(=O)c1nnn2c1nc(N1CCCCC1)c1ccccc12,i,-0.03
COc1cc(N2CCCC2)c(OC)cc1C=O,i,0.98
CCOC(=O)c1cc(-c2ccccc2)sc1NC(=O)C(C)OC(=O)c1ccncc1 (stereo not drawn),i,0.13
O=C(OCC(=O)N(C1CCCCC1)C1CCCCC1)c1ccco1,i,0.17
CCCCn1nc2cc(C(=O)NCc3ccccc3)ccc2c1OCC,i,-0.87
O=C1CCCN1c1ccc(S(=O)(=O)Oc2cccc(Cl)c2)cc1[N+](=O)[O-],i,-1.5
CCN1CC(CN(C)Cc2nc(-c3cccs3)no2)CC1=O (stereo not drawn),i,1.1
CN(C)C(/C=C/Nc1ccc(Br)cc1)=C(C#N)C#N,i,-0.81
O=C1COc2ccc(C(=O)NCc3ccc4c(c3)OCO4)cc2N1,i,-1
COc1ccc(NC(=O)CN(C)C(=O)c2cc3c(s2)CCC3)cc1,i,-0.21
O=C(NNc1ccc(C(F)(F)F)cc1[N+](=O)[O-])c1ccc(NS(=O)(=O)c2ccc(F)cc2)cc1,i,0.1
CCOC(=O)C1=C(c2ccccc2)N=C2SCC(=O)N2C1c1cccc(OC)c1 (stereo not drawn),i,0.62
CCOC(=O)CCS(=O)(=O)c1nc(-c2ccccc2)cc(C(F)(F)F)n1,i,-0.09
O=C(c1cc2c(ccc3ccccc32)o1)N1CCCCC1,i,-0.05

# Source: PubChem BioAssay (Johns Hopkins Ion Channel Center)
